Bioassay records deposited in PubChem BioAssay by several laboratories.
LANA-H2B inh: blocks KSHV LANA binding to histone H2A/H2B; Q9QR71; cell-free LANA-H2A/H2B peptide, fluorescence polarization; inhibition, % (test concentration not listed); hit rate 0.6% among 320,000; AID 2629; in the data active = inhibition mostly above about 10%, no sharp cut-off; inactive = mostly below about 6.7%;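 also: stock transfer was 7.5 nL into about 10 µL; 0% = median of vehicle wells and 100% = median of positive control wells; one replicate is shown; the record names a cut of 25% in any replicate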
A1 inh: inhibitors of the anti-apoptotic protein A1, read as caspase activation; caspase activation, % (test concentration not listed); hit rate 0.066% among 330,000; AID 2462; MEF A1-2A-BIM cells, Caspase-Glo 3/7 luminescence, 3 h; percent of clofoctol response, vehicle zero;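 active = over half of replicate activation scores above 10%, or exactly half above 10 with the replicate mean above 10; inconclusive = replicate mean below 10 yet half the replicates above 10; inactive = over half of replicates below 10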;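 also: wells of about 30 µL received 50 nL stock; many hits fall short of the cut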
Beta2AR agonist: activates human beta-2 adrenergic receptor causing internalization; P07550; Am2.2-beta2AR cells, FAP receptor internalization, flow cytometry; reference of the scale not given here; response, % (test concentration not listed); hit rate 0.43% among 340,000; AID 504454;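 active = response above a set limit, near 3 SD of response in nonfluorescent compounds, cut at about 42% in these data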;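 also: stock transfer was 100 nL into about 11 µL; a reference agonist was the positive control; negative values mostly stem from fluorescent compounds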
Target sequence (P07550 whole entry, looked up): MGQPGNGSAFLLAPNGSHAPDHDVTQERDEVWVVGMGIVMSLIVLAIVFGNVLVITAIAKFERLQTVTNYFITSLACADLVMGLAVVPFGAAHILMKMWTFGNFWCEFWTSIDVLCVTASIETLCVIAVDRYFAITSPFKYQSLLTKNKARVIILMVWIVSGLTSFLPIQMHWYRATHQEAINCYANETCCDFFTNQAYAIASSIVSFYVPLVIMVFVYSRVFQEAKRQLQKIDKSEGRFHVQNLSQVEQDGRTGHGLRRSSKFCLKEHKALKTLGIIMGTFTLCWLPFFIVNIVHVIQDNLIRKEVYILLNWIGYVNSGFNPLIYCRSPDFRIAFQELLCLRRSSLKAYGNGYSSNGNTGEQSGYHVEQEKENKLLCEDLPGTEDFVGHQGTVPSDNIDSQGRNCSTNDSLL
Ecoli rRNA inh: inhibitors of bacterial rRNA selective over humanized ribosomes; E. coli WT GFP vs humanized-ribosome RFP mutants, fluorescence, 24 h; stronger effect = lower value; DMSO median 0, no signal -100; hit rate 1.6% among 350,000; GFP signal change (wild-type ribosome), % (test concentration not listed);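 active = significant combined selectivity score with lowered wild-type GFP, culture density cut under 30%, mutant RFP and density less affected; inactive = any of these conditions unmet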; also: one replicate is shown; some compounds called inactive have numbers as strong as hits
Beta apoptosis: beta cell apoptosis inhibition. protection from apoptosis, % (concentration not given with the values). hit rate 0.8% among 300,000. INS-1E cytokine-induced death, ATP luminescence, 48 h; percent of positive-control rescue, neutral wells zero;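 active = all replicates at 75% or more, or half of them and the mean; inconclusive = half reach 75% but not the mean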;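 also: 0% = cytokine-treated negative control wells and 100% = positive control rescue; higher means more ATP so stronger rescue from cytokine killing; wells of about 40 µL received 100 nL stock; the first replicate is given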
ALR H2O2 inh: inhibitors of human sulfhydryl oxidase ALR | purified ALR, DTT oxidation, H2O2 HRP-luminol luminescence | P55789 | AID 485317 | hit rate 3.8% among 290,000 | inhibition, % (test concentration not listed);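 active = mean and each replicate at 75% or more; inconclusive = only one of the two met; inactive = neither met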;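 also: stock transfer was 7.5 nL into about 7.5 µL; 0% = neutral wells and 100% = wells with inactivated enzyme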
Target sequence (P55789 whole entry, looked up): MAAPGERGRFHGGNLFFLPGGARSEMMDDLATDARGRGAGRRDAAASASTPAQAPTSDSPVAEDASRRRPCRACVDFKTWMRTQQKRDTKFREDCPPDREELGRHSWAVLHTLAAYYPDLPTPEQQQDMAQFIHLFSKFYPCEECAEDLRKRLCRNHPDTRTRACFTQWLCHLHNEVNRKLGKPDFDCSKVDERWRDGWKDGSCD
T cruzi repl: blocks replication of Trypanosoma cruzi | T. cruzi beta-gal in NIH3T3, luminescence, 90 h | inhibition, % (test concentration not listed) | hit rate 1.4% among 300,000 | AID 1885;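 active = mean inhibition across valid replicates above about 55%, limit read from the data; inconclusive = mean below that limit but half or more replicates reach it; inactive = mean below it, under half of replicates reach it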;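 also: signal also drops with host cell toxicity which is not excluded here; 0% = plate median of DMSO wells and 100% = zero luminescence signal; higher percent means less beta-gal luminescence so fewer parasites; stock transfer was 50 nL into about 50 µL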
Calb FLC: affects C. albicans growth with fluconazole; C. albicans CaCi-2 (fluconazole-resistant clinical isolate) + fluconazole, Alamar Blue growth, 48 h; growth inhibition, % (no concentration beside the values); hit rate 0.57% among 300,000; AID 1979;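 active = most replicates above 75%; inconclusive = exactly half above 75%; inactive = most below 75%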;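 also: all wells also contain fluconazole at 8 µg/ml as a sub-toxic cotreatment; 0% = median of DMSO wells and 100% = median of geldanamycin control wells; wells of about 8 µL received 7.5 nL stock; the first replicate is given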
Ecoli rRNA inh OD600: also measured in Ecoli rRNA inh; calls as there; OD600 change, %; measured here: OD600 growth;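 optical density of the mix in the first replicate; 0 = DMSO median and -100 = no signal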
Ecoli rRNA inh RFP: second read-out of Ecoli rRNA inh, no call of its own (marks repeat the call); RFP signal change, %; measured here: RFP humanized mutant strains;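 first replicate; 0 = DMSO median and -100 = no signal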
* = called active by the depositor; ? = inconclusive; . = not tested or not shown; & = joins results of further samples. The list is partial; the hit share may differ from the screen's.

SMILES	LANA-H2B inh	A1 inh	Beta2AR agonist	Ecoli rRNA inh	Ecoli rRNA inh OD600	Ecoli rRNA inh RFP	Beta apoptosis	ALR H2O2 inh	T cruzi repl	Calb FLC
COc1ccc(OC)c(NC(=O)Cn2cccc2)c1	17*	0.8	-4	-3	-12	-4.1	-1	1	5	-11
O=C(CSc1nccc(=O)[nH]1)Nc1cccc2ccccc12	-4.0	0.7	0	9	1	1.4	-4	-28	-7	5
CCCCn1c(SCC(=O)NNC(=O)c2ccco2)nnc1-c1ccco1	-1.1	-0.2	-4	11	-3	-2.1	1	-1	-22	1
CSCCC(NS(=O)(=O)c1ccc2c(c1)oc(=O)n2C)C(=O)NCc1ccc(C)cc1 (stereo unspecified)	5.3	0.9	-15	6	2	-6.7	2	-4	2	2
CN(CC(=O)Nc1ccccc1Cl)C(=O)CSc1nnc(-c2ccco2)o1	2.2	-1.1	-12	-7	-5	-0.4	-2	-9	5	22
CCN(CC)CCCNC(=O)Cn1nc([N+](=O)[O-])c(Cl)c1C	-0.8	-0.1	-3	15	6	3.0	0	.	14	-9
Cc1ccc(C(=O)NNC(=O)c2cc(C)nc3ccccc23)cc1	-0.5	-1.0	6	-1	-15	0.4	-3	-24	.	.
Cc1ccc(NC(=O)c2ccc(F)cc2F)cc1NS(C)(=O)=O	-1.9	-0.5	-4	.	.	.	-8	-7	-14	-6
COc1ccccc1N1C(=O)c2cccnc2C1=O	1.6	0.7	-2	6	8	1.8	-2	2	-6	2
COC(OC)c1ccnc(SCc2ccccc2Cl)n1	-1.4	2.4	-4	-20	-20	-7.0	.	-9	.	-1
O=C(O)CSc1nnc(NC(=O)c2ccc3c(c2)OCO3)s1	-3.2	-0.4	-5	17	14	2.3	-11	2	-8	?
CSCCC(NC(=O)c1ccc(Cl)cc1Cl)C(=O)NNC(=O)c1csc(N2CCOCC2)n1 (stereo unspecified)	-9.5	-0.6	-4	1	-1	-0.5	-2	0	-4	4
COc1ccc(C(O)(CCc2ccccc2)CCN2CCCCC2)cc1 (stereo unspecified)	-2.8	0.3	0	15	0	1.6	-12	-3	-14	-5
CCc1nnc(NC(=O)C(C)C)s1	4.5	1.0	-5	.	.	.	0	-1	11	8
C=CCN1C(=O)C(C)(C)Nc2ccccc21	3.9	0.1	1	.	.	.	-15	3	7	24
O=C(CSCc1nc2scc(-c3cccs3)c2c(=O)[nH]1)Nc1ccccn1	0.5	0.3	3	-16	-14	1.9	-1	-6	-7	6
O=C(Oc1ccccc1N1C(=O)C2CCCCC2C1=O)c1ccccc1F (stereo unspecified)	-2.8	-0.3	3	.	.	.	-2	0	-7	1
O=C(Nc1ccccc1)c1cccc(S(=O)(=O)NC2CCCC2)c1	3.1	-1.4	-5	-6	-11	0.8	-1	-12	3	-7
Cn1c(SCc2cccc([N+](=O)[O-])c2)nc2c(c1=O)SCC2	0.4	-0.2	0	.	.	.	11	99*	7	0
CN(Cc1ccc(F)cc1)C(=O)COc1ccc2ccccc2c1	-4.0	-0.4	4	0	1	-0.5	-9	0	0	3
Cc1cc(C(=O)OCC(=O)Nc2ccc(F)c(F)c2)c(C)o1	0.3	0.8	5	.	.	.	0	-5	-11	-26
COc1cccc2cc(NC(=O)C3CCCCC3)c(=O)oc12	-3.7	-1.0	3	.	.	.	1	-3	5	-24
COc1cc(C(=S)N2CCCCC2)ccc1OCC(=O)N1CCCC1	-0.2	?	-5	.	.	.	-1	-3	2	29
COc1ccc(S(=O)(=O)NCC2CCCN(C(=O)CCSC)C2)cc1 (stereo unspecified)	-3.7	0.4	-5	17	9	3.6	.	.	-2	-1
Cc1ccc(OCCCC(=O)Nc2cc(Cl)ccc2-n2cncn2)cc1	0.6	1.3	-4	-5	-6	2.1	1	-17	29	0
COc1ccc(NC(=O)c2cc(-c3ccccc3)nc3c2c(C)nn3-c2ccccc2)c(OC)c1	-1.4	2.6	-5	3	10	6.5	15	1	34	2
COc1ccc(-c2c(-c3ccc(OC)cc3O)nc(C)nc2C(F)(F)F)cc1	2.9	1.1	-3	10	16	0.9	-2	-5	-1	4
Cc1cc(F)ccc1NC(=O)c1ccc(NS(=O)(=O)c2cc(C(C)(C)C)ccc2C)cc1	-1.4	0.1	4	.	.	.	7	0	2	7
COC(=O)c1ccc(Oc2c(C)oc3c(CN4CCN(C)CC4)c(O)ccc3c2=O)cc1	-4.4	0.4	7	.	.	.	2	-2	-18	0
CCOC(=O)c1ccc(Oc2nc(SC)nc(N(C)C)n2)cc1	-4.5	-0.4	-11	.	.	.	-4	-4	-5	28
CCO[C@H]1OC(C(N)=O)=C[C@@H](C2CCCCC2)[C@@H]1CCCO	-0.4	1.1	1	7	-5	16	-8	.	1	-2
COc1ccc2[nH]c(C(=O)N3CCC(CO)(Cc4cccc(C(F)(F)F)c4)CC3)c(C)c2c1	2.4	-0.4	-8	2	13	1.8	1	.	9	1
CCOC(=O)N1CCC2(CC1)C(C#N)=C(N)OC1=C2C(=O)CCC1	6.0	0.6	-7	8	4	2.2	-6	4	0	0
COc1ccccc1C(=O)N1c2ccccc2Sc2ccccc21	0.6	0.6	0	.	.	.	-4	-10	10	6
Cc1ccc(C2=CC(c3cccs3)n3nnnc3N2)cc1 (stereo unspecified)	23*	-0.6	-1	.	.	.	4	-3	6	49
CCOC(=O)C1=C(N)N(c2ccc(C)cc2)C2=C(C(=O)CCC2)C1c1cccs1 (stereo unspecified)	2.0	2.7	-4	-22*	-18*	0.5*	-6	29	41	10
C/C(=N\NC(=O)c1csc2ccccc12)c1ccc(O)cc1	2.6	-0.2	2	.	.	.	-2	100*	8	-1
CCCCn1c(SCC(=O)NCc2cccs2)nc2c1c(=O)n(C)c(=O)n2C	0.0	0.4	0	.	.	.	1	3	-9	3
COc1ccc2oc(=O)c(/C(N)=N/NC(=O)c3ccncc3)cc2c1	-2.0	-0.2	2	3	11	-1.3	-4	-3	-6	4
CC(=O)N/C(=C/c1ccc2c(c1)OCO2)C(=O)N1CCOCC1	-1.0	0.3	2	6	6	-0.1	-14	-11	-6	0
O=C(O)c1cc(S(=O)(=O)N2CCCCCC2)ccc1Cl	0.0	0.0	-2	.	.	.	-3	-2	-14	-6
O=S(=O)(NNC(=S)NCC1CCCO1)c1cc(Cl)ccc1Cl (stereo unspecified)	1.4	-1.2	8	-1	-13	-0.5	0	40	-2	-8
CCCCN(C(=O)c1cccc(S(=O)(=O)N2CCOCC2)c1)c1c(N)n(CCC)c(=O)[nH]c1=O	-0.4	0.3	-1	9	7	1.0	-9	.	-3	-1
Cc1ccc(C)c(NC(=O)CN(C)C(=O)COc2cccc3c2OC(C)(C)C3)c1	-5.1	-0.8	1	-2	-2	-0.3	1	-3	-16	-6
CCN(CC(=O)Nc1c(F)cccc1F)C(=O)CSCC(=O)Nc1cccc(C)c1	3.4	-0.2	2	2	1	-0.8	-6	16	-8	8
CC(=O)Nc1ccc(S(=O)(=O)N2c3ccccc3C(C)=CC2(C)C)cc1	4.0	-0.2	24	-30	-37	-6.3	22	.	28	-11
COc1cccc(-c2nc(CS(=O)(=O)CC(=O)N3CCc4ccccc4C3)c(C)o2)c1	-0.4	0.1	3	-20	-19	2.5	-2	33	8	4
CCOC(=O)c1c(C)[nH]c2c1-c1ccccc1C(=O)C2=O	.	.	1	10	7	-3.3	.	.	45	-29
Cc1ccc(CNC(=O)C(Cc2ccccc2)NS(=O)(=O)c2ccc3c(c2)CCC(=O)N3)cc1 (stereo unspecified)	2.5	0.1	-11	-4	-10	5.3	.	-7	-6	6
Cc1ccc(NC2CCCN(C(=O)c3c(C)noc3C)C2)cc1C (stereo unspecified)	1.0	0.2	-7	.	.	.	-2	95*	-4	3
CC[C@@H]1CN(C)[C@H]2Cc3c([nH]c4ccccc34)C(=O)C[C@@H]1[C@@H]2C(=O)OC	-1.4	0.2	4	-4	4	-5.1	-5	-12	-6	0
Oc1cc2c(cc1O)CN(C(=S)NCCc1ccc(Cl)cc1)CCC2	-3.9	0.5	1	.	.	.	7	98*	.	.
C[C@H](NC(=O)OC(C)(C)C)C(=O)NCC1CCC(C(=O)N[C@@H](Cc2ccccc2)C(=O)O)CC1 (stereo partly specified)	-1.4	3.4	-13	11	14	-0.1	1	-12	-9	0
CN(C)CC/C=C1\c2ccccc2Sc2ccc(Cl)cc21	-2.7&1.3	-0.1	53*	-58	-77	-17	-4	-9	31	-15
Cc1ccccc1CN(c1ccc(C(=O)Nc2ccccc2C(=O)NCc2ccco2)cc1)S(C)(=O)=O	-3.5	-0.3	3	.	.	.	7	-11	19	35
CCCc1cc(=O)oc2c(C)c(OCC(=O)NC3CC(C)(C)NC(C)(C)C3)ccc12	0.2	-0.8	-6	-3	2	0.3	.	1	14	-1
Cc1ccc(N2C(=O)CC(Sc3nc(-c4ccccc4)c4cc(Cl)ccc4n3)C2=O)c(C)c1 (stereo unspecified)	.	0.0	-4	.	.	.	5	.	0	-18
Nc1ccn(CC(=O)N2CCN(c3ccccn3)CC2)c(=O)n1	0.9	-0.4	1	4	12	8.2	0	0	.	.
COc1ccc(CN2CCCC(C(=O)Nc3cccc(-n4cccn4)c3)C2)c(F)c1 (stereo unspecified)	0.1	1.1	-19	-17	-19	1.0	-3	-7	51	0
COc1ccc(CCNC(=O)CC2SC(=Nc3cc(C)cc(C)c3)NC2=O)cc1OC (stereo unspecified)	-2.2	0.4	4	-1	-2	0.0	-10	2	-13	17

Additional results
SMILES	LANA-H2B inh	A1 inh	Beta2AR agonist	Ecoli rRNA inh	Ecoli rRNA inh OD600	Ecoli rRNA inh RFP	Beta apoptosis	ALR H2O2 inh	T cruzi repl	Calb FLC
Cc1ccc(C(=O)N2CCCCC2C(=O)O)o1 (stereo unspecified)	0.1	0.4	8	21	8	-2.3	-2	-2	-23	0
COc1ccc(-n2nc3cc(C)c(N)c(Br)c3n2)cc1	-2.7	-1.1	-1	.	.	.	-18	-22	16	-1
O=C1CC2(CON=C2c2ccc(F)cc2)C(=O)N1c1ccc(F)cc1 (stereo unspecified)	-5.7	0.7	2	.	.	.	2	-4	-2	4
Cc1noc(C)c1COc1cccc(C(=O)N(C)Cc2nc3ccccc3c(=O)[nH]2)c1	5.2	0.3	0	.	.	.	-1	-1	.	.
COc1ccc(-c2noc(CSc3nc4ccccc4c(=O)n3-c3ccccc3)n2)cc1	-4.8	0.4	-6	7	5	-1.3	13	-9	-12	-1
O=C(Nc1ccc2snnc2c1)N1CCSCC1	-0.1	0.1	-11	.	.	.	-5	93*	-5	-2
COc1ccccc1N=c1oc2cc(O)ccc2cc1C(N)=O	2.8	-14	5	.	.	.	17	.	-8	?
